ALR inh = blocks human ALR sulfhydryl oxidase activity; P55789; purified ALR, DTT oxidation, H2O2 HRP-luminol luminescence; inhibition, % (test concentration not listed); actives 3.8% (n = 290,000);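 active = mean and each replicate at 75% or more; inconclusive = only one of the two met; inactive = neither met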;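 also: stock transfer was 7.5 nL into about 7.5 µL; 0% = neutral wells and 100% = wells with inactivated enzyme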
Target sequence (P55789 whole entry, looked up): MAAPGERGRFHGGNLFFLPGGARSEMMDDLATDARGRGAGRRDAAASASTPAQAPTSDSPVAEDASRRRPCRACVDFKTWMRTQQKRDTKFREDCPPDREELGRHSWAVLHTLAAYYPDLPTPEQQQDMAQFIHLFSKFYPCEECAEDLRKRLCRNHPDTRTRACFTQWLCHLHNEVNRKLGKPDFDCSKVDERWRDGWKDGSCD
E coli growth = blocks Escherichia coli growth; OD600, 23 h; active compounds read low; OD600 absorbance (no concentration beside the values); actives 0.21% (n = 330,000);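 active = OD600 absorbance below the run mean of sample wells minus 3.6 SD, in any replicate, cut at about 0.56 in these data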;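 also: stock transfer was 300 nL into about 60 µL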
FGF22 binding = binders of recombinant human FGF22 by thermal shift; Q9HCT0; SYPRO orange fluorescence; percent of sucrose octasulfate shift, DMSO zero; calls only at 9.99 µM; actives 1.5% (n = 340,000); AID 651658;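 active = melting point raised past a set limit in the mean and every replicate; inconclusive = no clear call; three in four hits are not shown here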
Target sequence (Q9HCT0 whole entry, looked up): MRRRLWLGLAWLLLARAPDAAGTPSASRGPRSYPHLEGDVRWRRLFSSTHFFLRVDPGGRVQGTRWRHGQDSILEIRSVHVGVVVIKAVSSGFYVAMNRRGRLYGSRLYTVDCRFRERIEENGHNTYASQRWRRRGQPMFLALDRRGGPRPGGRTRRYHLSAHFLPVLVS
Beta2AR agonist = human beta-2 adrenergic receptor agonism by FAP | P07550 | Am2.2-beta2AR cells, FAP receptor internalization, flow cytometry; reference of the scale not given here | response, % (no concentration beside the values) | actives 0.43% (n = 340,000) | AID 504454;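 active = response above a set limit, near 3 SD of response in nonfluorescent compounds, cut at about 42% in these data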;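 also: stock transfer was 100 nL into about 11 µL; a reference agonist was the positive control; negative values mostly stem from fluorescent compounds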
HNF4A DNA FP = change in binding of human HNF4 alpha to DNA; activity change, % at 10 µM; AID 1224865; actives 0.3% (n = 360,000); P41235; HNF4a-FITC DNA binding, fluorescence polarization, 1 h; in the data active = activity change above about 30%, passing the limit was not always enough;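 also: controls were the assay level and a saturating level of protein; the project sought stronger binding though the title names inhibitors; some compounds called inactive have numbers as strong as hits; positive values seem to mean higher polarization but the record does not say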
Target sequence (P41235 whole entry, looked up): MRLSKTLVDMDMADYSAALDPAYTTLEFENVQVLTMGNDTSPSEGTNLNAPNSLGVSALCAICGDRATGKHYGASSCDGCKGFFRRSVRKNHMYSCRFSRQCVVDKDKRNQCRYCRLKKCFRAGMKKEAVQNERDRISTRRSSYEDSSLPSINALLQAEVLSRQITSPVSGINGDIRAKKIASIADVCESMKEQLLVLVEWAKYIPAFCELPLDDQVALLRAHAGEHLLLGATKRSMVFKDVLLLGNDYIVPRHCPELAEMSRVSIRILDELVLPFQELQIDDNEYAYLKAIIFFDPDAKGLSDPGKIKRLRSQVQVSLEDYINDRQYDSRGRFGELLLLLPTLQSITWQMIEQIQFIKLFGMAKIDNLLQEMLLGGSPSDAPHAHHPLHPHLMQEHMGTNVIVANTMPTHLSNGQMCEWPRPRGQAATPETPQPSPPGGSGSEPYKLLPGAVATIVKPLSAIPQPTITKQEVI
rRNA inh HTS = inhibitors of bacterial rRNA selective over humanized ribosomes; GFP signal change (wild-type ribosome), % (concentration not given with the values); E. coli WT GFP vs humanized-ribosome RFP mutants, fluorescence, 24 h; active compounds read low; DMSO median 0, no signal -100; actives 1.6% (n = 350,000); AID 720706;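 active = significant combined selectivity score with lowered wild-type GFP, culture density cut under 30%, mutant RFP and density less affected; inactive = any of these conditions unmet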; also: one replicate is shown; some compounds called inactive have numbers as strong as hits
UCH37 inh = human UCH37 deubiquitinating enzyme inhibition | Q9Y5K5 | purified proteasome/UCH37, Ub-AMC cleavage fluorescence | inhibition, % (concentration not given with the values) | actives 0.33% (n = 330,000) | AID 588478;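 active = mean of two replicates above 20%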;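 also: 0% = compound-free wells with enzyme and 100% = wells lacking proteasome; stock transfer was 100 nL into about 20 µL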
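Schedule: 30 min plus 25 min, room temperature / Material: human UCH37 within purified proteasomes / Technique: AMC fluorescence intensity at 355/460 nm / Buffer or medium: pH 7.4 Tris-HCl (50 mM) with ovalbumin, ATP-MgCl2, DTT / Controls: wells without proteasome as full block, compound-free enzyme plus substrate as uninhibited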
rRNA inh HTS OD600 = also measured in rRNA inh HTS; calls as there; OD600 change, %; measured here: OD600 growth;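 optical density of the mix in the first replicate; 0 = DMSO median and -100 = no signal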
rRNA inh HTS RFP = second read-out of rRNA inh HTS, no call of its own (marks repeat the call); RFP signal change, %; measured here: RFP humanized mutant strains;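 first replicate; 0 = DMSO median and -100 = no signal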
Active calls of the source: *; i = inactive; ? = inconclusive; nt = no result given; & = joins results of further samples. These rows are one share of the data (hit frequency here may not be typical).

SMILES	ALR inh	E coli growth	FGF22 binding	Beta2AR agonist	HNF4A DNA FP	rRNA inh HTS	rRNA inh HTS OD600	rRNA inh HTS RFP	UCH37 inh
COc1ccc(-c2noc3c2-c2nc(-c4ccccc4C)sc2CC3)cc1	-8	0.71	i	nt	nt	14	-2	-4.1	-1.7
O=C1c2ccc(Cl)cc2S(=O)(=O)c2cccc(C(=O)N3CCC(Cc4ccccc4)CC3)c21	-3	0.72	i	23	-3.0	4	-4	0.4	0.6
CCOc1ccc(NC(=O)CNS(=O)(=O)c2c(C)cc(C)cc2C)cc1	-5	0.71	i	-1	-0.8	-31	-37	-4.2	0.7
CC(C(=O)Nc1ccc(S(=O)(=O)N2CCOCC2)cc1)N1CCN(c2ccccn2)CC1 (stereo not drawn)	nt	0.66	i	1	-6.2	3	5	-1.9	1.9
Cn1c(N)c(C(c2ccccc2)c2c(N)n(C)c(=O)n(C)c2=O)c(=O)n(C)c1=O	-3	nt	nt	-2	-0.1	nt	nt	nt	nt
COc1cc2ccccc2cc1C(=O)Nc1ccc(N2CCN(C)CC2)cc1	15	0.71	nt	-9	0.9	-2	-1	7.1	2.7
O=C(Nc1cccc2nsnc12)c1cccs1	-22&-16	0.64&0.67	nt	-11&-9	0.8&-1.6	0	3	-4.7	-84&-7.1
O=C(N1CCOCC1)N1c2ccccc2Sc2ccccc21	99*	0.65	nt	-9	1.2	nt	nt	nt	1.4
COc1cc(NC(=O)CSc2nccc(=O)[nH]2)c(C)cc1[N+](=O)[O-]	0	0.61	nt	2	-0.8	8	-8	0.8	5.0
O=C1c2ccccc2C(=O)N1CCCc1nc(-c2ccccn2)no1	nt	0.73	nt	4	-1.6	nt	nt	nt	3.3
O=C(Cc1ccon1)c1ccc(O)cc1O	-8	0.64	i	4	-9.2	6	-1	1.0	5.8
CCN(CC)CCCN=Cc1c(O)n(Cc2ccccc2)c(=O)c2ccccc12	nt	0.72	nt	10	2.8	nt	nt	nt	3.8
CC(C)Cc1nnc(NC(=O)C2CCN(C(=O)c3ccc(F)cc3)CC2)s1	nt	0.7	i	-1	1.9	9	4	0.7	0.2
Cc1cnc(C(=O)Nc2c(-c3ccccc3)[nH][nH]c2=O)cn1	nt	nt	i	nt	2.1	7	8	5.3	nt
CCOc1ccccc1N1CCN(C(=O)c2cc(-c3cccnc3)nc3c(Cl)cccc23)CC1	-18	0.72	nt	-2	0.1	nt	nt	nt	-0.9
O=C1CCC(C(=O)N2CCSCC2)CN1CCc1ccccc1 (stereo not drawn)	4	0.62	i	34	-0.1	0	2	-4.4	1.7
CC(=O)N1CCN(c2ccccc2NC(=O)c2ccco2)CC1	-1	0.73	i	-11	6.3	-4	-1	1.3	1.5
COc1cccc(C(=O)NC2(C(F)(F)F)N=C3SCCN3C2=O)c1 (stereo not drawn)	8	0.66	nt	11	3.2	nt	nt	nt	5.0
CCOc1ccc(Nc2nc(-c3cccnc3)cs2)cc1	-11	0.64	nt	-3	1.2	5	10	5.1	4.1
CSc1c2c([nH]c(=O)c1C#N)-c1ccccc1CC2	nt	nt	i	nt	-7.9	3	-3	0.4	nt
CC(C)(C)OC(=O)C[C@@H]1C/C=C\C[C@@H](CC(=O)NCCO)C(=O)NC[C@@H](c2ccccc2)OC1=O	-3	nt	i	2	-1.0	6	4	8.1	2.0
CCn1c(=O)c2cc(C(=O)Nc3ccccc3OC)sc2c2ccccc21	-4	0.66	i	-8	3.7	5	0	-0.1	-89
COc1ccccc1C(=O)NC(=O)COC(=O)c1oc2ccccc2c1C	6	0.68	i	-2	1.3	4	4	-0.7	1.8
CCCn1c(N)c(N(CCOC)C(=O)CSCC(=O)Nc2cccc(C)c2)c(=O)[nH]c1=O	nt	0.72	i	-5	0.2	11	6	1.4	-2.7
O=C(c1cc(Cl)ccc1F)N1CCCC(Nc2ccc3c(c2)OCCO3)C1 (stereo not drawn)	97*	0.7	i	1	-4.4	3	-6	1.2	-1.3
CN(CCC1CCOCC1)C(=O)CC1C(=O)NCCN1Cc1cccc(F)c1 (stereo not drawn)	-10	0.67	i	3	1.3	7	9	4.9	-11
COc1ccccc1N1C(=O)CC(Sc2ncccc2C(=O)O)C1=O (stereo not drawn)	4	0.78	nt	1	-1.0	nt	nt	nt	0.2
CN1CCN(CC#CCC(O)(c2ccccc2)C2CCCC2)CC1 (stereo not drawn)	-3	0.76	nt	9	-1.2	nt	nt	nt	2.5
O=C(NN=C1c2ccccc2-c2ccccc21)c1cccc(Br)c1	-4	0.73	i	-14	-3.6	nt	nt	nt	2.1
COc1ccc(C/C(N)=N/OC(=O)C(c2ccccc2)c2ccccc2)cc1OC	-2	0.65	nt	2	1.4	nt	nt	nt	0.8
Cc1cc(/C=C2\NC(=S)N(C)C2=O)ccc1N1CCCC1	?	0.73	i	-49	154	nt	nt	nt	4.7
Cn1cccc1/C=N/N1CCN(c2ccccn2)CC1	72	nt	i	1	6.0	7	20	7.3	nt
CCN1CCC2(CC1)C(C#N)=C(N)Oc1c2sc2nc(C)cc(C)c12	6	0.79	nt	4	6.1	nt	nt	nt	6.6
O=C(CC[C@H]1O[C@@H](n2cnc3c(NC(=O)c4ccccc4)ncnc32)[C@H](O)[C@@H]1O)NCc1nc2ccccc2[nH]1	nt	nt	i	nt	2.6	-5	4	-2.9	nt
COc1cc(-c2c(-c3cccc(C)c3)oc3ccccc23)cc(OC)c1OC	-7	0.73	i	-9	-1.0	21	9	-0.2	-0.1
CCOC(=O)c1cnc(C(C)(C)C)[nH]c1=O	5	0.75	nt	-6	0.8	nt	nt	nt	1.2
COc1ccc(OC)c(S(=O)(=O)N2CCN(C(=O)c3cc(C4CC4)nn3-c3ccccc3)CC2)c1	22	0.68	i	9	2.5	-20	-23	2.0	0.4
CCN1/C(=C/c2ccc3cc(C)ccc3[n+]2C)Sc2ccc3sccc3c21	nt	0.54	i	i	180	36	-61	48	7.1
CCOC(=O)c1c(S(=O)(=O)NCC(=O)NCc2cccc(C)c2)c(C)n(C)c1C	-5	0.62	i	1	-4.1	-4	3	-0.7	-1.5
CC(C)N(C(=O)CSc1nc2c([nH]1)c(=O)n(C)c(=O)n2C)c1ccccc1	-8	0.72	i	2	-1.7	0	8	-2.0	-1.9
Cc1c(Cl)cccc1NC(=O)COC(=O)Cc1ccsc1	-1	0.7	i	-4	-0.3	nt	nt	nt	0.9
CC(C)C[C@H]1CNC(=S)N1CC1CCCN1C[C@H](Cc1ccccc1)N1C[C@H](Cc2ccccc2)N(CC2CCCCC2)C1=S (stereo partly drawn)	nt	nt	i	nt	1.9	1	14	-6.2	nt
C=CCN(c1ccccc1)S(=O)(=O)c1cccc(C(=O)N2CCCC2)c1	-1	0.62	nt	8	-1.4	-1	-8	-1.7	-0.7
CC1(C(=O)NS(=O)(=O)c2cccc(OC(F)F)c2)CCN1C(=O)c1ccccc1 (stereo not drawn)	nt	nt	i	nt	-0.3	4	4	-3.9	nt
O=C(NNc1cccc(Cl)n1)c1cccnc1Cl	-6	0.68	i	1	0.3	7	9	1.8	2.3
CN(CCOc1ccccc1)CC(=O)Nc1ccc([N+](=O)[O-])cc1Cl	-15	0.67	i	-2	2.0	1	6	3.1	1.2
Cc1ccc(CNC(=O)CSc2ccc(-c3ccccn3)nn2)cc1	-4	0.64	i	-7	-4.1	6	3	0.6	2.6
O=C(NCCNC(=O)C1CC2CCC1C2)C1CC2CCC1C2 (stereo not drawn)	-15	0.68	nt	4	-2.6	nt	nt	nt	-0.1
Clc1ccc(-c2nc3c4ccccc4ccn3c2Cc2cccc(Cl)c2)cc1	nt	nt	i	nt	6.0	26	19	8.1	nt
Cn1c[n+](C)cc1/C=N/O	4	nt	nt	6	-0.2	nt	nt	nt	nt

Other results
SMILES	ALR inh	E coli growth	FGF22 binding	Beta2AR agonist	HNF4A DNA FP	rRNA inh HTS	rRNA inh HTS OD600	rRNA inh HTS RFP	UCH37 inh
COc1cc(C(=O)Nc2ccc(S(=O)(=O)N3CCCCC3)cc2)ccc1OCC(=O)N1CCOCC1	nt	0.66	i	-4	2.5	-6	-13	-2.3	3.4
COc1ccc(N2CC(C(=O)NCc3cccnc3)CC2=O)cc1 (stereo not drawn)	5	0.74	nt	-3	3.6	nt	nt	nt	-2.1
Nc1ccc(-c2cnc(N)c(C(=O)c3cccnc3)n2)cn1	nt	nt	nt	1	-7.1	nt	nt	nt	1.2
CCc1ccc(C2=NNC(=Nc3cccc(S(=O)(=O)N(C)C)c3)SC2)cc1	20	0.71	i	1	2.9	6	-2	2.8	4.8
CC1CC(CC(=O)Nc2nc(-c3ccccc3)cs2)C(=O)O1 (stereo not drawn)	-4	0.69	nt	3	-0.3	-24*	-18*	-2.3*	3.1
Cc1ccc(CN(CC(=O)NCCc2ccccc2)C(=O)c2csnn2)cc1	2	0.68	i	-8	1.8	-3	-10	2.2	1.1
Cc1ccn2c(CNC(C)c3cn(C)nc3C)c(C(=O)N3CCCCCC3)nc2c1 (stereo not drawn)	-2	0.68	i	5	-1.4	3	16	0.3	-2.3
O=C(N/N=C/c1ccc2c(c1)OCO2)c1ccccn1	0	nt	i	1	1.6	5	3	-0.7	nt
COCCN1CCN(C(=O)c2ccc3oc(CCCc4ccccc4)nc3c2)CC1	-5	nt	i	-2	0.8	-1	4	-2.8	nt
COc1ccc(CCNC(=O)CCc2cc(OC)c(OC)c(OC)c2)cc1OC	-10	0.68	i	2	-0.3	8	10	6.3	3.8

An excerpt of these results, comma-delimited:
SMILES,ALR inh,E coli growth,FGF22 binding,Beta2AR agonist,HNF4A DNA FP,rRNA inh HTS,rRNA inh HTS OD600,rRNA inh HTS RFP,UCH37 inh
COc1ccc(N2CC(C(=O)NCc3cccnc3)CC2=O)cc1 (stereo not drawn),5,0.74,nt,-3,3.6,nt,nt,nt,-2.1
Nc1ccc(-c2cnc(N)c(C(=O)c3cccnc3)n2)cn1,nt,nt,nt,1,-7.1,nt,nt,nt,1.2

Part of the list above, reformatted:
ALR inh	E coli growth	FGF22 binding	Beta2AR agonist	HNF4A DNA FP	rRNA inh HTS	rRNA inh HTS OD600	rRNA inh HTS RFP	UCH37 inh	SMILES
nt	nt	nt	1	-7.1	nt	nt	nt	1.2	Nc1ccc(-c2cnc(N)c(C(=O)c3cccnc3)n2)cn1
20	0.71	i	1	2.9	6	-2	2.8	4.8	CCc1ccc(C2=NNC(=Nc3cccc(S(=O)(=O)N(C)C)c3)SC2)cc1
-4	0.69	nt	3	-0.3	-24*	-18*	-2.3*	3.1	CC1CC(CC(=O)Nc2nc(-c3ccccc3)cs2)C(=O)O1 (stereo not drawn)
2	0.68	i	-8	1.8	-3	-10	2.2	1.1	Cc1ccc(CN(CC(=O)NCCc2ccccc2)C(=O)c2csnn2)cc1

Following part:
SMILES	ALR inh	E coli growth	FGF22 binding	Beta2AR agonist	HNF4A DNA FP	rRNA inh HTS	rRNA inh HTS OD600	rRNA inh HTS RFP	UCH37 inh
O=C(OC1CCN(c2ncc(C(F)(F)F)cc2Cl)CC1)c1cccc(C(F)(F)F)c1	-23	0.66	nt	6	0.5	nt	nt	nt	4.1
COc1ccc(C(=O)NCc2nnc(SCC(=O)N3CCOCC3)o2)cc1OC	-5	0.69	i	0	-1.3	11	12	2.3	2.8
COc1ccc(-c2nnc(CSc3nc4ccccc4c(=O)n3CC3CCCO3)o2)cc1OC (stereo not drawn)	-6	0.71	i	1	2.9	7	12	15	5.5
Cc1cc(C(=O)O)cc(Br)c1N	-3	0.67	i	-2	-1.6	9	-1	2.3	0.1
O=C(c1ccc(NS(=O)(=O)c2ccc(F)cc2)cc1)N1CCC1	-1	0.68	i	1	6.4	5	2	0.9	2.0

Screening results as filed in PubChem BioAssay.
